ALR H2O2 inh – blocks human ALR sulfhydryl oxidase activity. P55789. purified ALR, DTT oxidation, H2O2 HRP-luminol luminescence. AID 485317. actives 3.8% (n = 290,000). inhibition, % (test concentration not listed);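 active = mean and each replicate at 75% or more; inconclusive = only one of the two met; inactive = neither met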;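 note: stock transfer was 7.5 nL into about 7.5 µL; 0% = neutral wells and 100% = wells with inactivated enzyme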
Beta2AR agonist – activates human beta-2 adrenergic receptor causing internalization; P07550; Am2.2-beta2AR cells, FAP receptor internalization, flow cytometry; reference of the scale not given here; response, % (test concentration not listed); AID 504454; actives 0.43% (n = 340,000);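 active = response above a set limit, near 3 SD of response in nonfluorescent compounds, cut at about 42% in these data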;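 note: stock transfer was 100 nL into about 11 µL; a reference agonist was the positive control; negative values mostly stem from fluorescent compounds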
Target sequence (P07550 whole entry, looked up): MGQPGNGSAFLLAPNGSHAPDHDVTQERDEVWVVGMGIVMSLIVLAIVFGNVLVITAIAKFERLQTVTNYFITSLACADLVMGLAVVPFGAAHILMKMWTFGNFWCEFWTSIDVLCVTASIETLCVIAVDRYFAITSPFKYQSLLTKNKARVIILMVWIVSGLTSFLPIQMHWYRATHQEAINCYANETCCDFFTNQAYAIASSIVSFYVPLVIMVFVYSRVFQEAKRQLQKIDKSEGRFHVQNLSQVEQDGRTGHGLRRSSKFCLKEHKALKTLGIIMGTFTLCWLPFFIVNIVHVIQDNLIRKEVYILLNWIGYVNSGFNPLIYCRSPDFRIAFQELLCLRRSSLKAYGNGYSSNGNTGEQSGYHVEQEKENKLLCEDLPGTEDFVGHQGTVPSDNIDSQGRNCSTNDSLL
LANA-H2B inh – blocks KSHV LANA binding to histone H2A/H2B; cell-free LANA-H2A/H2B peptide, fluorescence polarization; inhibition, % (test concentration not listed); actives 0.6% (n = 320,000); Q9QR71; in the data active = inhibition mostly above about 10%, no sharp cut-off; inactive = mostly below about 6.7%;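 note: stock transfer was 7.5 nL into about 10 µL; 0% = median of vehicle wells and 100% = median of positive control wells; one replicate is shown; the record names a cut of 25% in any replicate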
RanGTP-Impb inh – inhibitors of RanGTP-importin-beta interaction, primary screen, biochemical, FRET, CFP-Ran, YFP-importin-beta, homogeneous; actives 1.1% (n = 300,000); cell-free CFP-Ran/YFP-importin-beta FRET ratio; AID 2216; inhibition, % (concentration not given with the values);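 active = most replicates above 15%; inconclusive = exactly half above 15%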;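 note: 0% = DMSO wells and 100% = Ran loaded with GDP instead of GTP; wells of about 40 µL received 100 nL stock; the first replicate is given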
HNF4A DNA FP – change in binding of human HNF4 alpha to DNA | AID 1224865 | P41235 | activity change, % at 10 µM | actives 0.3% (n = 360,000) | HNF4a-FITC DNA binding, fluorescence polarization, 1 h; in the data active = activity change above about 30%, passing the limit was not always enough;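 note: controls were the assay level and a saturating level of protein; the project sought stronger binding though the title names inhibitors; some compounds called inactive have numbers as strong as hits; positive values seem to mean higher polarization but the record does not say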
Target sequence (P41235 whole entry, looked up): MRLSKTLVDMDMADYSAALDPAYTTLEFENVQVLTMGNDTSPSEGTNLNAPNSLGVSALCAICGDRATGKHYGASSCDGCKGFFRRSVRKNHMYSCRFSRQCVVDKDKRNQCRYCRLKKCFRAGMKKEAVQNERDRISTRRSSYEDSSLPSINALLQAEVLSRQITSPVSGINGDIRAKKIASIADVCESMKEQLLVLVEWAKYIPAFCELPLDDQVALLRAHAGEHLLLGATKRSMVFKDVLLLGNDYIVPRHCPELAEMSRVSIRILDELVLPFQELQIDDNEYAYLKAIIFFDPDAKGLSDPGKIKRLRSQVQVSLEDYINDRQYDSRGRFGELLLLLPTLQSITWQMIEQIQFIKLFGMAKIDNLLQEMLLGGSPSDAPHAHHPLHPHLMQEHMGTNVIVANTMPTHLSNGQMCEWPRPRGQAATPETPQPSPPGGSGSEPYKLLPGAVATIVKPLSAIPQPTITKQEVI
Calb FLC – C. albicans growth modulation with fluconazole | AID 1979 | growth inhibition, % (concentration not given with the values) | actives 0.57% (n = 300,000) | C. albicans CaCi-2 (fluconazole-resistant clinical isolate) + fluconazole, Alamar Blue growth, 48 h;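 active = most replicates above 75%; inconclusive = exactly half above 75%; inactive = most below 75%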;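 note: all wells also contain fluconazole at 8 µg/ml as a sub-toxic cotreatment; 0% = median of DMSO wells and 100% = median of geldanamycin control wells; wells of about 8 µL received 7.5 nL stock; the first replicate is given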
Vif TR-FRET – inhibitors of Vif binding to APOBEC3G peptide, primary screen, biochemical, TR-FRET, GST-Vif 1-94, biotin-A3G peptide, dose response retest (AID 1117319); TR-FRET GST-Vif / biotin-A3G peptide binding; higher % means a stronger effect; test concentration not given here; strong numbers were not always called active; actives 0.57% (n = 260,000); inhibition, %, or IC50 in µM where a hit was titrated;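 active = above the screen mean plus three standard deviations and confirmed in dose response; inconclusive = results disagree or hit not tested in dose response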;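 note: Vif residues 1-94 fused to GST binding biotinylated APOBEC3G peptide 110-148; 0% = full assay without inhibitor and 100% = GST in place of GST-Vif; retest series ran down from 100 µM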
Active calls of the source: *; u = inconclusive; x = no result given; & = joins results of further samples.

entry	molecule	Vif TR-FRET	Calb FLC	HNF4A DNA FP	LANA-H2B inh	RanGTP-Impb inh	ALR H2O2 inh	Beta2AR agonist
1	CCN(Cc1cc2cc(OC)ccc2[nH]c1=O)C(=O)c1ccncc1	-1.6%	47.2	-0.7	0.8	-0.2	-20.2	5.5
2	COc1ccc(C(=O)O/N=C/c2ccc(S(=O)c3ccc(Cl)cc3)nc2)cc1 (centres undefined)	-4.5%	34.7	-3.8	2.9	5.6	-1.8	-1.5
3	CCOC(=O)C1=C(CSc2nc(C)cc(C)c2C#N)OC(N)=C(C#N)C1c1ccccc1 (centres undefined)	-12.6%&0.4%	12.2	1.5	8.6	u	-7.9	-5.2
4	Cc1ccc(/C=N/n2c(-c3ccco3)n[nH]c2=S)s1	x	24.9	-1.2	-2.5	1.7	11.3	4.2
5	CC(=O)NC(c1ccccc1)c1cccnc1 (centres undefined)	26.4%	-7.5	1.8	-3.6	-1.5	1.5	-0.4
6	COc1cccc(-c2nn(-c3ccccc3)cc2C(=O)NCC(=O)O)c1	5.0%	1.5	1.3	-5.3	-0.5	x	-15.4
7	CN(C)C(=O)N1CCN(C(=O)c2ccco2)CC1	-0.7%	-0.3	1.7	-0.7	-2.4	-2.0	0.0
8	CCOc1ccc(NC(=O)c2ccco2)cc1	6.8%	-1.7	-1.4	-2.1	-1.3	-3.8	-3.4
9	O=C(CSc1oc(-c2ccco2)nc1S(=O)(=O)c1ccc(F)cc1)NCC1CCCO1 (centres undefined)	u	-7.4	0.4	12.3	-1.8	2.0	-17.9
10	COC(=O)c1ccccc1NC(=O)C(C)NS(=O)(=O)c1ccc(OC)cc1 (centres undefined)	u	5.0	1.5	3.2	-3.1	-1.6	14.2
11	COC(=O)c1cc(C(=O)c2ccc(Cl)cc2)n2c(=O)/c(=C\N(C)C)sc12	-9.0%	-4.9	2.8	6.6	-3.9	-12.6	-9.1
12	Cc1occc1-c1nnc(SCC(=O)Nc2ccccc2)n1C(C)c1ccccc1 (centres undefined)	-4.9%	2.5	-2.2	-2.2	-3.1	-3.6	-5.4
13	C/C(=N\NC(=O)c1ccc(Cl)cc1)c1ccc(Br)s1	u	24.2	1.2	3.2	-1.4	32.4	-3.1
14	COc1ccc2cc(CCNC(=O)CCc3ccccc3)c(=O)[nH]c2c1	8.8%	-3.8	6.4	0.3	0.9	-6.1	2.6
15	O=C(COC(=O)Cn1cnc2ccccc2c1=O)Nc1ccccc1OC(F)F	-3.0%	x	5.5	-0.8	x	2.3	-8.4
16	N/C(Cc1ccc(Cl)c(Cl)c1)=N\OC(=O)c1cccs1	-7.4%	101.4*	5.2	0.3	2.9	11.5	3.5
17	O=C(NC1CCCCC1)c1c2c(nc3ccccc13)CCC2	u	6.2	-4.4	-8.7	9.2	-5.2	2.4
18	CCc1ccc(N=C2NC(=O)/C(=C/c3cc(OC)c(O)c(OC)c3)S2)cc1	x	52.7	13.7	-2.3	-8.0	43.1	-5.1
19	CCCOC(=O)CC1C(=O)NCCN1Cc1ccccc1C (centres undefined)	x	-0.3	3.5	-4.3	2.4	-10.5	3.1
20	Cc1c(Cl)cccc1NC(=S)N1CCN(c2ccccn2)CC1	-7.2%	13.9	-1.9	4.8	-5.0	6.3	-0.6
21	Cc1ccc(S(=O)(=O)/N=C(/NC(=S)Nc2cccc(C)c2)c2ccccc2)cc1	22.5%	-5.0	0.6	1.5	6.2	-4.3	0.6
22	O=C(Cn1nc(Cl)nc1Cl)c1ccc([N+](=O)[O-])cc1	-0.5%	9.1	-2.4	-1.4	1.8	-15.1	-11.3
23	CSC1CCCCC1(O)CSc1nc2c(cc1C#N)CCCC2 (centres undefined)	-11.5%	5.4	2.4	3.5	u	0.2	-13.3
24	Cc1cc(-c2ccc(C(C)C)c(S(=O)(=O)N3CCN(c4ccccc4)CC3)c2)on1	x	22.9	-3.4	-0.6	-0.4	-1.9	-6.9
25	CC1CCN(c2cc(=O)n(C3CCCCC3)c(=O)[nH]2)CC1	-10.2%	-2.2	7.2	2.3	30.7*	-29.8	-1.8
26	CCOc1ccccc1N1CCN(Cc2cnc(-c3ccccc3)[nH]2)CC1	-5.1%	2.4	-1.9	5.1	1.6	37.8	-3.7
27	Cc1ccc(C(=O)N/C(=C\c2ccc(Cl)cc2)C(=O)NCCCN2CCOCC2)cc1	x	2.0	-0.9	-2.7	2.2	-2.7	-7.5
28	CCOc1ccc(NC(=O)COc2ccc3c(c2)OCO3)cc1	-0.9%	0.7	3.1	-4.5	3.3	-8.0	3.9
29	CCN(CC)c1ccc2cc(C(=O)O)c(=O)oc2c1	16.8%	9.5	1.7	-5.8	152.9*	1.1	2.0
30	C=CCN1C(=O)c2ccc(C(=O)NCCc3ccc(OC)c(OC)c3)cc2C1=O	10.1%	3.7	-1.1	-1.5	4.1	1.6	2.6

Other records
entry	molecule	Vif TR-FRET	Calb FLC	HNF4A DNA FP	LANA-H2B inh	RanGTP-Impb inh	ALR H2O2 inh	Beta2AR agonist
31	CCOc1ccc(C(C)=O)cc1Cc1c(O)nc(N)[nH]c1=O	-2.3%	-0.7	x	-2.1	0.9	x	x
32	O=C(O)C1CCCCC1C(=O)Nc1ccc2c(c1)CCC2 (centres undefined)	-3.4%	1.9	-0.9	4.0	u	-6.6	-8.2
33	Cc1ccc(C2CCN(C(=S)Nc3cccc(Cl)c3)C2)cc1 (centres undefined)	3.2%	-12.1	0.8	0.3	2.3	9.5	6.3
34	COc1ccc(OCCOc2ccc(C)nc2[N+](=O)[O-])cc1	2.8%	-4.3	0.8	1.5	-2.4	-2.7	-11.2
35	CCCN(CCC)S(=O)(=O)c1ccc(C(=O)Nc2ccc(OCC(=O)N3CCOCC3)cc2)cc1	-2.1%	13.5	0.1	1.3	-1.5	-30.1	2.2
36	O=C(NNC(=O)C1C2CCC(C2)C1C(=O)O)c1ccc(Cl)cc1 (centres undefined)	-11.8%	-1.8	0.4	0.5	7.0	23.7	-4.2
37	CCN(CC(O)COCc1ccc(Cl)cc1)C1CCCCC1 (centres undefined)	1.6%	-17.7	4.2	2.1	2.2	-13.3	9.4
38	C=CCn1c(=S)[nH]c2ccccc2c1=O	10.7%	x	1.1	16.4*	x	-6.2	-5.8
39	CCCCC(CCC(=O)O)(C(=O)OCC)c1csc(Nc2ccccc2)n1 (centres undefined)	-6.1%	18.9	-0.3	-4.2	-1.2	95.8*	-3.1
40	Cc1csc(SC(C)C(=O)Nc2ccc(F)cc2Cl)n1 (centres undefined)	2.1%	x	0.6	10.4	x	-7.9	-2.9
41	O=C(NNC(=O)C1CC(c2cccnc2)=NO1)Nc1cccc(F)c1 (centres undefined)	0.1%	-8.3	1.9	2.7	-3.0	12.6	6.3
42	CCOc1ccc(NC(=O)CCC(=O)NNC(=O)COc2ccc(C)cc2)cc1	-10.3%	0.1	0.6	4.9	4.9	4.2	0.9
43	Cn1ccnc1SCC(=O)NC1CCCCC1	u	-17.2	-3.1	0.1	-2.1	-1.2	1.4
44	CC(=O)Nc1ccccc1C(=O)C(=O)Nc1ccc(C)c(C)c1	x	-9.5	-1.0	-2.2	1.3	-1.9	-1.0
45	CCOC(=O)C1C(C(=O)NN)C1C(=O)Nc1ccccc1 (centres undefined)	5.0%	-7.2	-3.5	-3.3	-0.7	6.8	3.7
46	CCOC(=O)C1CCCN(/C=C2\SC(=S)N(CC)C2=O)C1 (centres undefined)	-7.0%	-9.5	2.1	7.0	-3.4	-11.0	6.9
47	CC(=O)N1N=C(c2cccc(O)c2)CC1c1cccs1 (centres undefined)	x	-6.5	-2.0	2.9	0.7	14.3	9.7
48	COc1ccccc1CNC(=O)c1ccncc1	x	-7.7	0.4	-7.5	23.3*	-2.8	-0.9
49	O=C(NCCc1ccc(Cl)cc1)C1CC(=O)N(CCc2ccccc2)C1 (centres undefined)	0.7%	3.4	3.5	-0.5	3.8	-22.3	1.8
50	CCOc1ccc2nc(NC(=O)CSc3nc(SC)ns3)sc2c1	-4.0%	45.2	5.6	-0.6	4.4	-14.5	-4.8
51	Cc1cc(=O)n(C(NC(=O)c2ccccc2)C(=O)c2ccccc2)cn1 (centres undefined)	-0.2%	-1.6	-2.7	-6.2	-2.3	13.8	-2.6
52	COc1ccc(N2CC(C(=O)O)CC2=O)cc1 (centres undefined)	-4.1%	-4.3	-2.0	1.2	0.1	-1.2	5.2
53	O=c1[nH]c(-c2ccc3c(c2)OCO3)nc2c1sc(=S)n2-c1ccccc1	-5.0%	-13.3	-17.4	2.9	1.4	-4.6	4.3
54	CC(=O)Nc1ccccc1NC(=O)C/C(C)=N/NC(=O)c1ccccn1	x	18.2	2.8	3.2	-0.8	0.1	-1.3
55	Cc1cc(-n2cnc(-c3cn[nH]c3C)n2)no1	-6.5%	-3.5	3.8	0.9	0.8	-1.8	-9.6
56	O=C(Nc1ccccc1C(F)(F)F)c1cc(S(=O)(=O)N2CCOCC2)ccc1F	-2.3%	18.5	1.0	1.6	-2.6	x	0.2
57	Cc1ccc(C)c(S(=O)(=O)NCCOc2nc(NC(C)C)nc(NC(C)C)n2)c1	32.0%	-1.4	-1.1	-3.0	1.3	0.5	-10.7
58	CCOC(=O)c1cc(-c2ccccc2)sc1NC(=O)C(C)OC(=O)c1cccc(S(=O)(=O)N(C)C)c1 (centres undefined)	7.5%	14.9	3.7	x	-2.8	x	-2.5
59	O=C(Nc1ccc(F)cc1)Nc1ccc(Cl)cn1	0.0%	-20.5	-3.0	-1.3	u	-4.1	2.0
60	COc1ccc(S(=O)(=O)N2CCN(CCC(=O)Nc3ccc(F)cc3)CC2)cc1	18.4%	-5.6	-4.3	x	1.9	x	2.1
61	COc1ccc(NC(=O)Nc2nnc(CC(=O)Nc3ccccc3)s2)cc1	u	11.9	0.2	1.6	2.1	-7.0	-0.8

Results in RanGTP-Impb inh, Calb FLC and ALR H2O2 inh, for some of the entries so far:
no.	compound	RanGTP-Impb inh	Calb FLC	ALR H2O2 inh
32	O=C(O)C1CCCCC1C(=O)Nc1ccc2c(c1)CCC2 (centres undefined)	u	1.9	-6.6
33	Cc1ccc(C2CCN(C(=S)Nc3cccc(Cl)c3)C2)cc1 (centres undefined)	2.3	-12.1	9.5
34	COc1ccc(OCCOc2ccc(C)nc2[N+](=O)[O-])cc1	-2.4	-4.3	-2.7

Some of these compounds in order of formula weight, lowest first.
entry	molecule	Vif TR-FRET	Calb FLC	HNF4A DNA FP	LANA-H2B inh	RanGTP-Impb inh	ALR H2O2 inh	Beta2AR agonist
38	C=CCn1c(=S)[nH]c2ccccc2c1=O	10.7%	x	1.1	16.4*	x	-6.2	-5.8
41	O=C(NNC(=O)C1CC(c2cccnc2)=NO1)Nc1cccc(F)c1 (centres undefined)	0.1%	-8.3	1.9	2.7	-3.0	12.6	6.3
54	CC(=O)Nc1ccccc1NC(=O)C/C(C)=N/NC(=O)c1ccccn1	x	18.2	2.8	3.2	-0.8	0.1	-1.3
61	COc1ccc(NC(=O)Nc2nnc(CC(=O)Nc3ccccc3)s2)cc1	u	11.9	0.2	1.6	2.1	-7.0	-0.8
50	CCOc1ccc2nc(NC(=O)CSc3nc(SC)ns3)sc2c1	-4.0%	45.2	5.6	-0.6	4.4	-14.5	-4.8
